eIF4H FP inh: human eIF4H binding inhibitors, primary screen, translation initiation inhibitor project, biochemical, uHTS, fluorescence polarization | 290,000 compounds, 0.94% hits | inhibition, % at 35 µM | eIF4H fluorescence polarization binding assay | Eukaryotic translation initiation factor 4H (Homo sapiens), Q15056;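 active = 50% or more with normal probe brightness, or confirmed in later tests; about a fifth of its hits are not listed in these tables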;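 note: calls also rest on retests at 20 µM and on dose response follow-up; 0% = protein and probe with vehicle and 100% = probe without protein; strong numbers were not always called active; many hits fall short of the cut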
Yeast UUG start: modulators of yeast start codon fidelity, primary screen, whole organism, S. cerevisiae, single point, plate reader; S. cerevisiae UUG-firefly luciferase reporter, luminescence/redox ratio; activity score, % at 18.7 µM; 350,000 compounds, 0.13% hits; AID 602363, 2012;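 active = replicate mean at a twofold rise or more, about +100% in these data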;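 note: firefly luciferase made from a UUG start codon reports start codon fidelity; reporter light over untreated wells divided by growth signal over untreated wells; some hits fall short of that in this replicate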
PABP FP inh: PABP poly(A) RNA binding inhibitors, primary screen, biochemical, fluorescence polarization, uHTS | Polyadenylate-binding protein 1 (Homo sapiens), P11940 | inhibition, % at 35 µM | 290,000 compounds, 1% hits;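 active = 50% or more with normal probe brightness, or confirmed in later tests; about a fifth of its hits are not listed in these tables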;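 note: calls also rest on retests at 20 µM and on dose response follow-up; controls were probe without protein and protein plus probe with vehicle; some compounds called inactive have numbers as strong as hits; many hits fall short of the cut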
Target sequence (P11940 whole entry, looked up): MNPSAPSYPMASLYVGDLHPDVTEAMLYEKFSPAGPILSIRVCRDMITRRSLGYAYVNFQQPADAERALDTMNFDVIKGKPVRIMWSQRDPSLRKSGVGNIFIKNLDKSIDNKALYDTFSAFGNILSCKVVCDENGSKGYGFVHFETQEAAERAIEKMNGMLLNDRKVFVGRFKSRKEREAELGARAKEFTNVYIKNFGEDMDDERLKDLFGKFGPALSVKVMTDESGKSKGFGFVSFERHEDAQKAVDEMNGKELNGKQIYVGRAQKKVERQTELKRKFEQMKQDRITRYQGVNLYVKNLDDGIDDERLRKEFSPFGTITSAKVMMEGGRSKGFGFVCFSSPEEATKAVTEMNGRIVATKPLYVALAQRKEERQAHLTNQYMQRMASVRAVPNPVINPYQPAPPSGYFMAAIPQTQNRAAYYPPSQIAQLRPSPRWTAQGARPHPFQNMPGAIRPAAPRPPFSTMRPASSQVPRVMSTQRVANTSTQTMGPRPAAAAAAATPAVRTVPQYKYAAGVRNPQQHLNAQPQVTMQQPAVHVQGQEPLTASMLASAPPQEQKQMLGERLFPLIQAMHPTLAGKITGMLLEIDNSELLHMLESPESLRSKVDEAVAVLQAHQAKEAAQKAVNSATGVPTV
Env fusion inh: inhibitors of HIV-1 Env-driven cell-cell fusion, primary screen, HeLa-JRFL effector, CEM21 target cells, luciferase. inhibition, % at 12.3 µM. 360,000 compounds, 1.1% hits;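 active = mean replicate inhibition score of at least 50 and every replicate individually at or above 50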;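 note: 0% = plate neutral controls and 100% = maraviroc near 300 nM; one replicate is shown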
Rce1 inh: yeast Rce1p protease inhibitors, primary screen, biochemical, fluorescence, cell-free homogeneous. AID 2563, 2010. yeast membranes, quenched prenylated peptide cleavage fluorescence. CAAX prenyl protease 2 (Saccharomyces cerevisiae (strain ATCC 204508 / S288c)), Q03530. 290,000 compounds, 0.27% hits. calls only;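 active = fall in fluorescence gain of 50% or more versus controls, with final raw signal at or below 3038400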;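 note: plate controls were neutral control wells for no effect and wells lacking membranes for full effect; tested at 10 µM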
Target sequence (Q03530 whole entry, looked up): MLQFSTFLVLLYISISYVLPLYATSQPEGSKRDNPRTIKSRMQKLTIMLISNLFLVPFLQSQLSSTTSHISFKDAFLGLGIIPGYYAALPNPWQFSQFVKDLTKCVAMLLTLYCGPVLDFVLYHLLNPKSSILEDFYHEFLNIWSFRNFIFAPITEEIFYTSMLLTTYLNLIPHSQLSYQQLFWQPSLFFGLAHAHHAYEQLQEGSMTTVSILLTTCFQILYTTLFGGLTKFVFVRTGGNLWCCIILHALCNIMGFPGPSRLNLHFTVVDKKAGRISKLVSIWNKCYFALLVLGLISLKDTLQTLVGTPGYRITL
MT1-MMP act inh: blockers of MT1-MMP proenzyme processing, primary screen, HT1080 RFP-PRO-GFP cells, GFP/RFP fluorescence; GFP/RFP ratio fluorescence, overnight; percent of plate control window, DMSO zero; GFP/RFP ratio change, % at 20 µM; 360,000 compounds, 0.061% hits;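 active = GFP/RFP ratio change of at least 30% with cell ATP level not reduced by more than half and red fluorescence within 50% of control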; note: strong numbers were not always called active
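Compound: 20 µM single dose, 1% DMSO / System: HT1080 RFP-PRO-GFP cells / Controls: DMSO and RFP-L50D-GFP cell wells / Read-out basis: GFP/RFP fluorescence ratio / Schedule: overnight compound exposure at 37 °C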
CSC inhib: cancer stem cell viability inhibitors, primary screen, luminescence. cancer stem cell-like cells viability. inhibition, % at 7.5 µM. 300,000 compounds, 1.1% hits;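 active = mean at 75% or more and at least half the replicates too; tested in HMLE shEcad cells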;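 note: 0% = median of negative and 100% = median of positive control wells; the first replicate is given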
eIF4H FP inh retest: also measured in eIF4H FP inh; calls as there; inhibition, %; compound at 20 µM; confirmation average;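 mean of two retest wells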
PABP FP inh retest: second read-out of PABP FP inh, no call of its own (marks repeat the call); inhibition, %; compound at 20 µM; confirmation repeats;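 mean of two retest wells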
MT1-MMP act inh RFP: further read-out of MT1-MMP act inh, marked with its call; RFP signal change, %; measured here: RFP expression control read;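 0 = vehicle wells; hits needed this value within 50% of zero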
An asterisk follows results filed as active; & = joins results of further samples. An unsorted share of the library. Share with any hit: about 2.9%.

`O=C(CSc1ccccn1)Nc1ccc(NC(=O)CSc2ccccn2)cc1` gave eIF4H FP inh 6.6, PABP FP inh 3.6, Env fusion inh 9.8, Rce1 inh inactive, MT1-MMP act inh 2.5, CSC inhib -16.6 and MT1-MMP act inh RFP 3.2.
Screening O=C(Nc1ccc2nc3n(c(=O)c2c1)CCCC3)c1cccnc1Cl returned Yeast UUG start -12.8, Env fusion inh -4.5, Rce1 inh inactive, MT1-MMP act inh 1.4, CSC inhib -16.2 and MT1-MMP act inh RFP 6.8.
COc1cc(C(=O)NC2CCN(Cc3nnnn3Cc3ccc(F)cc3)CC2)cc(OC)c1OC was read as eIF4H FP inh 2.5, Yeast UUG start -4.4, PABP FP inh 0.9, Env fusion inh -2.8, Rce1 inh inactive, MT1-MMP act inh 0.5, CSC inhib -7.2 and MT1-MMP act inh RFP -2.1.
COc1ccc(OC)c(-c2nc(C(=O)NCCCN3CCOCC3)cc3c2[nH]c2ccccc23)c1 was read as eIF4H FP inh 30.5, Yeast UUG start -21.4, PABP FP inh 4.9, Rce1 inh inactive, MT1-MMP act inh 3.1, CSC inhib 0.9 and MT1-MMP act inh RFP -0.8.
For CCOC(=O)C1C(=O)C=C(c2ccc(NS(C)(=O)=O)cc2)CC1c1ccco1 (centres undefined) the results were eIF4H FP inh -8.2, Yeast UUG start -0.9, PABP FP inh -6.0, Env fusion inh 6.9, Rce1 inh inactive, MT1-MMP act inh 0.8, CSC inhib 3.1 and MT1-MMP act inh RFP -0.4.
For CCCc1cc(=O)[nH]c(N2CCN(Cc3ccc4c(c3)OCO4)CC2)n1 the results were eIF4H FP inh -9.3, Yeast UUG start -14.4, PABP FP inh -0.2, Env fusion inh 3.1, Rce1 inh inactive, MT1-MMP act inh 1.4, CSC inhib -3.9 and MT1-MMP act inh RFP 0.8.
Screening CCCCn1c(=O)c(-[n+]2ccccc2)c([O-])c2ccccc21 returned eIF4H FP inh 3.9, Yeast UUG start 7.6, PABP FP inh 12.5, Rce1 inh inactive, MT1-MMP act inh 4.4, CSC inhib -10.4 and MT1-MMP act inh RFP 2.6.
C=CCNC(=S)/N=c1/scc(C)n1C was read as eIF4H FP inh -0.8, PABP FP inh 1.5, Env fusion inh -72.5, Rce1 inh inactive, MT1-MMP act inh 0.7, CSC inhib -1.7 and MT1-MMP act inh RFP 3.7.
Screening Cc1c(S(=O)(=O)c2ccccn2)c(N)n(Cc2cccc(Cl)c2)c1C returned eIF4H FP inh 62.0, Yeast UUG start -16.0, PABP FP inh 9.7, Env fusion inh -0.1, Rce1 inh inactive, MT1-MMP act inh 5.0, eIF4H FP inh retest -1.4, PABP FP inh retest 27.3 and MT1-MMP act inh RFP 33.7.
`COC(=O)C(NNc1ccccc1)(NC(=O)c1cccc(F)c1)C(F)(F)F` (centres undefined) gave eIF4H FP inh 1.9, Yeast UUG start 8.5, PABP FP inh 3.2, Env fusion inh 21.0, Rce1 inh inactive, MT1-MMP act inh 3.4, CSC inhib -16.0 and MT1-MMP act inh RFP -1.5.
Screening O=C(O)C(Cc1c[nH]c2ccccc12)NS(=O)(=O)c1ccc2ccccc2c1 (centres undefined) returned eIF4H FP inh 1.2, Yeast UUG start -61.3, PABP FP inh 8.5, Env fusion inh 9.2, Rce1 inh inactive, MT1-MMP act inh 2.9, CSC inhib -5.5 and MT1-MMP act inh RFP 3.1.
CN1CCN(c2ccc(NC(=S)NC(=O)/C=C/c3ccco3)cc2)CC1 was read as eIF4H FP inh -10.2, Yeast UUG start -14.3, PABP FP inh 1.2, Env fusion inh -59.2, Rce1 inh inactive, MT1-MMP act inh -7.5, CSC inhib 0.1 and MT1-MMP act inh RFP -2.0.
`O=C(Cc1ccc(NC(=O)C2CCCN(C(=O)C3CCC3)C2)cc1)Nc1cccc(C(=O)N2CCCC2)c1` (centres undefined) gave Yeast UUG start -4.8, Env fusion inh -7.4, MT1-MMP act inh 5.2 and MT1-MMP act inh RFP 8.3.
`Cc1ccc(C(=O)C=Cc2cccc(C)c2)cc1` gave Yeast UUG start -17.9, Env fusion inh -12.1, MT1-MMP act inh -1.8 and MT1-MMP act inh RFP 1.1.
C=CCNC(=O)/C(C#N)=C/c1c(C)nn(-c2ccc(Cl)cc2)c1Cl was read as eIF4H FP inh 3.0, PABP FP inh 15.1, Env fusion inh 19.1, Rce1 inh inactive, MT1-MMP act inh -17.3, CSC inhib 8.0 and MT1-MMP act inh RFP -17.4.
O=C(O)C(Cc1c[nH]c2ccccc12)NS(=O)(=O)c1cccc2nsnc12 (centres undefined) was read as eIF4H FP inh 6.2, PABP FP inh -8.8, Env fusion inh 1.5, Rce1 inh inactive, MT1-MMP act inh -1.7, CSC inhib 20.4 and MT1-MMP act inh RFP 3.9.
Screening O=C(O)c1ccc(N/N=C/c2ccc(-c3ccccc3)cc2)cc1 returned eIF4H FP inh 7.1, PABP FP inh -4.4, Env fusion inh -202.9, Rce1 inh inactive, MT1-MMP act inh 0.6 and MT1-MMP act inh RFP -2.0.
`COc1cc(C(=O)NCc2ccccn2)ccc1OCc1c(C)noc1C` gave eIF4H FP inh 6.0, PABP FP inh -4.6, Rce1 inh inactive, MT1-MMP act inh 3.2, CSC inhib 3.0 and MT1-MMP act inh RFP 6.8.
COc1ccc(NC(=O)CC2C(=O)N(c3ccccc3)C(=O)N2Cc2ccco2)cc1 (centres undefined) was read as eIF4H FP inh -0.5, PABP FP inh -0.5, Env fusion inh -13.4, Rce1 inh inactive, MT1-MMP act inh -1.3, CSC inhib -7.8 and MT1-MMP act inh RFP -4.9.
CCOc1ccc2ccccc2c1/C=N/NC(=O)CC1(C)OCCCO1 was read as eIF4H FP inh -7.3, PABP FP inh -2.6, Rce1 inh inactive, MT1-MMP act inh -1.8, CSC inhib -12.2 and MT1-MMP act inh RFP -0.3.
`CC(C)=NOCC(=O)Nn1c(COc2ccccc2)nc2ccccc2c1=O` gave eIF4H FP inh -8.1, Yeast UUG start -1.0, PABP FP inh -4.4, Env fusion inh -48.1, Rce1 inh inactive, MT1-MMP act inh 3.9, CSC inhib -0.8 and MT1-MMP act inh RFP 1.1.
For CN1CCCN(c2ncnc3scc(-c4ccc(F)cc4)c23)CC1 the results were eIF4H FP inh -2.1, PABP FP inh 12.0, Env fusion inh 10.9, Rce1 inh inactive, MT1-MMP act inh -13.9, CSC inhib -11.0 and MT1-MMP act inh RFP -9.2.
`O=c1c2ccccc2nc(SCc2cn3ccsc3n2)n1-c1ccccc1F` gave eIF4H FP inh -4.1, Yeast UUG start -18.8, PABP FP inh 1.8, Rce1 inh inactive, MT1-MMP act inh -7.4 and MT1-MMP act inh RFP -8.6.
COCCN(C(=O)COC(=O)C12CC3CC(CC(Cl)(C3)C1)C2)c1c(N)n(Cc2ccccc2)c(=O)[nH]c1=O was read as Yeast UUG start -8.4, Env fusion inh 67.9*, Rce1 inh inactive, MT1-MMP act inh -6.8, CSC inhib -18.5 and MT1-MMP act inh RFP -4.4.
For CCCCOCCCNC(=O)c1ccc(OCC)cc1 the results were eIF4H FP inh -5.8, Yeast UUG start -12.0, PABP FP inh -12.3, Rce1 inh inactive, MT1-MMP act inh 4.6, CSC inhib -8.3 and MT1-MMP act inh RFP 2.5.
CC(C)c1ccc(N(C(=O)c2csnn2)C(C(=O)NC(C)(C)C)c2ccncc2)cc1 (centres undefined) was read as eIF4H FP inh -3.3, Yeast UUG start -9.6, PABP FP inh -0.4, Rce1 inh inactive, MT1-MMP act inh -0.2, CSC inhib -0.8 and MT1-MMP act inh RFP 0.7.
COC(=O)c1c(NC(=O)COc2ccc(Cl)cc2)sc2c1CC(C)(C)NC2(C)C was read as eIF4H FP inh -0.6, Yeast UUG start -21.4, PABP FP inh -21.3, Env fusion inh 57.3*, Rce1 inh inactive, MT1-MMP act inh -17.0, CSC inhib 10.1 and MT1-MMP act inh RFP -10.0.
`CCCn1c(C)cc(/C=C(\C#N)C(=O)OCC(=O)NC(=O)NC(C)(C)C)c1C` gave eIF4H FP inh 2.6, PABP FP inh 12.4, Rce1 inh inactive, MT1-MMP act inh 1.1, CSC inhib -22.5 and MT1-MMP act inh RFP -6.8.
`O=C(NN1CCOCC1)c1ccc(Cl)c(Cl)c1` gave eIF4H FP inh 11.7, Yeast UUG start -11.2, PABP FP inh -1.5, Rce1 inh inactive, MT1-MMP act inh -0.8, CSC inhib -14.7 and MT1-MMP act inh RFP -1.4.
COc1ccc(-n2cccc2/C=C2\C(=N)N3N=C(C(C)C)SC3=NC2=O)cc1 was read as eIF4H FP inh -7.6, PABP FP inh -1.0, Env fusion inh 2.7, Rce1 inh inactive, MT1-MMP act inh 1.8, CSC inhib -1.3 and MT1-MMP act inh RFP 1.2.

As a short view, two of the compounds above.
`O=C(NN1CCOCC1)c1ccc(Cl)c(Cl)c1` gave eIF4H FP inh 11.7, Yeast UUG start -11.2, PABP FP inh -1.5, Rce1 inh inactive, MT1-MMP act inh -0.8, CSC inhib -14.7 and MT1-MMP act inh RFP -1.4.
COc1ccc(-n2cccc2/C=C2\C(=N)N3N=C(C(C)C)SC3=NC2=O)cc1 was read as eIF4H FP inh -7.6, PABP FP inh -1.0, Env fusion inh 2.7, Rce1 inh inactive, MT1-MMP act inh 1.8, CSC inhib -1.3 and MT1-MMP act inh RFP 1.2.

Next entries:
Screening COCCNC(=S)Nc1ccc(N2CCCCC2)cc1 returned eIF4H FP inh -3.7, Yeast UUG start -28.3, PABP FP inh 4.3, Env fusion inh -1.9, Rce1 inh inactive, MT1-MMP act inh 5.7, CSC inhib -8.2 and MT1-MMP act inh RFP 2.0.
`C[C@@H]1CN([C@H](C)CO)C(=O)c2cccc(NC(=O)Nc3ccc(C(F)(F)F)cc3)c2O[C@H]1CN(C)S(=O)(=O)c1cccs1` gave Yeast UUG start -0.9&-9.3, Env fusion inh -261.9, MT1-MMP act inh 5.6 and MT1-MMP act inh RFP -5.8.
COc1ccccc1/C=C/C(=O)NCC(=O)N/N=C/c1cc(Br)ccc1OC was read as eIF4H FP inh -7.1, PABP FP inh -6.2, Rce1 inh inactive, MT1-MMP act inh 4.7, CSC inhib 20.9 and MT1-MMP act inh RFP -3.0.
COc1ccc(C2Cc3ccccc3C(=O)O2)cc1 (centres undefined) was read as eIF4H FP inh 2.8, Yeast UUG start 9.2, PABP FP inh 4.3, Rce1 inh inactive, MT1-MMP act inh -2.6 and MT1-MMP act inh RFP -1.3.
Screening CSc1cccc(NC(=O)Cc2ccccc2[N+](=O)[O-])c1 returned eIF4H FP inh 4.3, PABP FP inh 6.3, Env fusion inh -11.2, Rce1 inh inactive, MT1-MMP act inh -0.4, CSC inhib -3.1 and MT1-MMP act inh RFP -0.3.
Screening O=C(CNCCc1ccccc1)N1CCc2ccccc2C1 returned eIF4H FP inh -0.7, Yeast UUG start 1.3, PABP FP inh 0.1, Env fusion inh 10.4, Rce1 inh inactive, MT1-MMP act inh 2.2, CSC inhib 1.5 and MT1-MMP act inh RFP 2.1.
`CC(=O)c1cccc(NC(=O)CN(c2ccc(C)cc2)S(=O)(=O)c2cccc3nonc23)c1` gave eIF4H FP inh -2.9, Yeast UUG start 37.4, PABP FP inh -9.8, Rce1 inh inactive, MT1-MMP act inh -9.1, CSC inhib 0.9 and MT1-MMP act inh RFP -5.1.
Cc1ccc2nc(N(CCCN(C)C)C(=O)c3sc4ccccc4c3Cl)sc2c1 was read as eIF4H FP inh -8.7, Yeast UUG start 5.2, PABP FP inh -9.1, Rce1 inh inactive, MT1-MMP act inh -5.2 and MT1-MMP act inh RFP 2.0.
